Env fusion inh: HIV envelope-mediated fusion inhibition; 1.1% of 360,000 active; HeLa-JRFL Env/CEM21 cell fusion, luciferase; inhibition, % at 12.3 µM; AID 651610;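 active = mean replicate inhibition score of at least 50 and every replicate individually at or above 50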;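 also: 0% = plate neutral controls and 100% = maraviroc near 300 nM; one replicate is shown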
Active calls of the source: *; [ ] = remark or other dose.

Env fusion inh,canonical_smiles
4[16.7 µM],CCS(=O)(=O)Nc1ccc2c(c1)C(=O)N(C)[C@@H]1CC[C@H](CC(=O)N[C@@H]3CCN(Cc4ccccc4)C3)O[C@@H]1CO2
10[16.7 µM],COc1ccc(NC(=O)N(C)C[C@H]2Oc3ccc(NS(=O)(=O)c4ccc(C)cc4)cc3C(=O)N([C@@H](C)CO)C[C@H]2C)cc1
-9,Cc1ccccc1C(=O)N[C@H](C(=O)N1CCC[C@H]1C(=O)NC1CCCC1)c1ccccc1
-88[16.7 µM],CN1C(=O)c2cc(NC(=O)c3ccc(C(F)(F)F)cc3)ccc2OC[C@@H]2O[C@@H](CC(=O)NC3Cc4ccccc4C3)CC[C@H]21
6[16.7 µM],CO[C@@H]1CN(C)C(=O)c2ccc(NC(C)=O)cc2OC[C@@H](C)N(Cc2ccccc2F)C[C@@H]1C
2[16.7 µM],C[C@@H]1CN([C@H](C)CO)C(=O)c2cc(NC(=O)Cn3cnnn3)ccc2O[C@H]1CN(C)Cc1ccc(C(F)(F)F)cc1
58*[16.7 µM],C[C@H](C(=O)N(C)C[C@@H]1OCc2ccccc2-c2ccccc2C(=O)N([C@@H](C)CO)C[C@@H]1C)c1ccccc1
-44[16.7 µM],C[C@@H]1CN([C@H](C)CO)C(=O)c2cccc(NC(=O)c3ccncc3)c2O[C@@H]1CN(C)CC1CCCCC1
-13[16.7 µM],COC(=O)[C@@H]1[C@@H](CO)[C@@H]2Cn3c(ccc(-c4ccccc4F)c3=O)[C@@H]2N1Cc1ccncc1
-4,O=C(Cc1ccccc1F)Nc1cccc(S(=O)(=O)N2CCOCC2)c1
55*[16.7 µM],COc1cccc(C(=O)Nc2ccc3c(c2)C(=O)N(C)C[C@H](OC)[C@@H](C)CN(CCc2ccccc2)[C@H](C)CO3)c1
-11[16.7 µM],COc1ccc(NC(=O)Nc2cccc3c2O[C@@H](CN(C)Cc2ccc4c(c2)OCO4)[C@H](C)CN([C@@H](C)CO)C3=O)cc1
3[16.7 µM],COC(=O)C[C@@H]1C[C@@H]2c3cc(NS(C)(=O)=O)ccc3O[C@@H]2[C@@H](CO)O1
2[16.7 µM],CC(C)NC(=O)Nc1ccc2c(c1)C(=O)N([C@@H](C)CO)C[C@@H](C)[C@H](CN(C)C)OCCCC[C@@H](C)O2
12[16.7 µM],CN1C(=O)c2cc(NC(=O)c3ccccc3Cl)ccc2OC[C@H]2O[C@@H](CC(=O)Nc3ccc4c(c3)CCC4)CC[C@@H]21
2[16.7 µM],C[C@@H]1CN([C@H](C)CO)C(=O)Cc2cc(NC(=O)Nc3cccc4ccccc34)ccc2O[C@H]1CN(C)S(C)(=O)=O
-16[16.7 µM],O=C(C1=C[C@@H](C2CC2)C[C@@H](OCc2ccc(CO)cc2)O1)N1CCCC1
-2[16.7 µM],C[C@H]1CCCCO[C@H](CN(C)Cc2ccncc2)[C@@H](C)CN([C@@H](C)CO)C(=O)c2cc(NC(=O)c3ccncc3)ccc2O1
-8[16.7 µM],CCNC(=O)C[C@H]1CC[C@@H]2[C@H](COC[C@H](O)CN2C(=O)c2ccccn2)O1
13[16.7 µM],CC(C)[C@@H](C)NC(=O)N(C)C[C@H]1OCc2ccccc2-c2ccccc2C(=O)N([C@H](C)CO)C[C@@H]1C
-11[16.7 µM],CC(C)NC(=O)Nc1ccc2c(c1)CC(=O)N([C@@H](C)CO)C[C@@H](C)[C@H](CN(C)Cc1ccc(C(=O)Nc3ccccc3N)cc1)O2
-17[16.7 µM],C/C=C/c1cnc2c(c1)C(=O)N([C@@H](C)CO)C[C@@H](C)[C@H](CN(C)Cc1ccccc1F)O2
20[16.7 µM],CCCNC(=O)N1[C@@H]2Cn3c(ccc(-c4cccc(OC)c4)c3=O)[C@H]1[C@@H](C(=O)NC1CCC1)[C@@H]2CO
-11[16.7 µM],CCC(=O)N1C[C@H](O)COC[C@@H]2O[C@H](CC(=O)NCc3cc(F)cc(F)c3)CC[C@H]21
3[16.7 µM],CO[C@H]1CC[C@H]2CCOc3ccc(C#N)cc3C(=O)N(C)C[C@@H](c3ccccc3)CC(=O)N(C)C[C@H]1O2

Gathered by group: those above containing a CF3 group
Env fusion inh,canonical_smiles
-88[16.7 µM],CN1C(=O)c2cc(NC(=O)c3ccc(C(F)(F)F)cc3)ccc2OC[C@@H]2O[C@@H](CC(=O)NC3Cc4ccccc4C3)CC[C@H]21
2[16.7 µM],C[C@@H]1CN([C@H](C)CO)C(=O)c2cc(NC(=O)Cn3cnnn3)ccc2O[C@H]1CN(C)Cc1ccc(C(F)(F)F)cc1

A second format for part of the listing above:
structure | Env fusion inh
COC(=O)C[C@@H]1C[C@@H]2c3cc(NS(C)(=O)=O)ccc3O[C@@H]2[C@@H](CO)O1 | 3[16.7 µM]
CC(C)NC(=O)Nc1ccc2c(c1)C(=O)N([C@@H](C)CO)C[C@@H](C)[C@H](CN(C)C)OCCCC[C@@H](C)O2 | 2[16.7 µM]

Molecules from the list above containing an aryl methoxy group:
Env fusion inh,canonical_smiles
10[16.7 µM],COc1ccc(NC(=O)N(C)C[C@H]2Oc3ccc(NS(=O)(=O)c4ccc(C)cc4)cc3C(=O)N([C@@H](C)CO)C[C@H]2C)cc1
55*[16.7 µM],COc1cccc(C(=O)Nc2ccc3c(c2)C(=O)N(C)C[C@H](OC)[C@@H](C)CN(CCc2ccccc2)[C@H](C)CO3)c1
-11[16.7 µM],COc1ccc(NC(=O)Nc2cccc3c2O[C@@H](CN(C)Cc2ccc4c(c2)OCO4)[C@H](C)CN([C@@H](C)CO)C3=O)cc1
20[16.7 µM],CCCNC(=O)N1[C@@H]2Cn3c(ccc(-c4cccc(OC)c4)c3=O)[C@H]1[C@@H](C(=O)NC1CCC1)[C@@H]2CO

Additional entries:
Env fusion inh,canonical_smiles
-2[16.7 µM],C[C@@H]1CN([C@H](C)CO)C(=O)Cc2cc(NC(=O)Cn3cnnn3)ccc2O[C@@H]1CN(C)C(=O)Nc1ccc(F)cc1
-3[16.7 µM],COC(=O)C[C@@H]1CC[C@H]2[C@@H](COC[C@@H](O)CN2S(=O)(=O)c2ccccc2OC)O1
8[16.7 µM],C[C@@H]1CN([C@H](C)CO)S(=O)(=O)c2ccc(-c3ccc(F)cc3)cc2O[C@H]1CN(C)Cc1ccccc1C(=O)O
12[16.7 µM],O=C(NC[C@@H]1CC[C@H]2[C@H](CN2Cc2ccc(Oc3ccccc3)cc2)O1)C1CCOCC1
3,CCCCS(=O)(=O)N1C2=NC(C(=O)OCC)=C(C(=O)OCC)C3N(Cc4ccc(Br)cc4)c4ccccc4[C@]23C[C@H]1C(=O)OC (stereo not given in full)
23[16.7 µM],COc1ccc2c3c(n(C)c2c1)[C@@H](CO)N(C(=O)Nc1ccc(F)cc1)CC31CN(Cc2cccnc2)C1
39[16.7 µM],COc1ccc(NC(=O)N(C)C[C@H]2OCc3ccccc3-c3c(n(C)c4ccccc34)C(=O)N([C@H](C)CO)C[C@@H]2C)c(OC)c1
-12[16.7 µM],O=C(N[C@@H]1CC[C@@H](CCn2cc(-c3ccccc3F)nn2)O[C@@H]1CO)c1ccc2c(c1)OCO2
18[16.7 µM],CCC(=O)N(C)C[C@@H]1Oc2cc(C3=CCCCC3)ccc2S(=O)(=O)N([C@H](C)CO)C[C@@H]1C
11,O=C(Nc1c(-c2ccccc2)[nH][nH]c1=O)c1ccc2c(c1)OCO2
-3[16.7 µM],CNC[C@@H]1OCCCC[C@@H](C)Oc2ccc(NC(=O)Nc3ccccc3)cc2C(=O)N([C@H](C)CO)C[C@@H]1C
-46[16.7 µM],O=C(Nc1ccccc1)[C@H]1[C@H](CO)[C@H]2Cn3c(ccc(C4=CCCCC4)c3=O)[C@H]2N1Cc1cocn1
-21,CCOC(=O)N(C)[C@H]1C[C@H]2c3[nH]c4ccccc4c3CCN2C(=O)[C@H]1[C@H](C)O
14[16.7 µM],CC(C)NC(=O)Nc1ccc2c(c1)CC(=O)N([C@@H](C)CO)C[C@H](C)[C@@H](CN(C)C)O2
5[16.7 µM],O=C(C[C@H]1CC[C@@H]2[C@H](COC[C@@H](O)CN2C(=O)Nc2cccc(Cl)c2)O1)N1CCCCC1
0[16.7 µM],CC(C)NC(=O)Nc1ccc2c(c1)C(=O)N(C)[C@H]1CC[C@H](CC(=O)NCc3ccc(F)cc3)O[C@@H]1CO2
-18[16.7 µM],Cc1ccccc1S(=O)(=O)NCC[C@@H]1CC[C@@H](NS(=O)(=O)c2ccccc2C)[C@@H](CO)O1
39[16.7 µM],CNC[C@@H]1Oc2c(NC(=O)Nc3ccc4c(c3)OCO4)cccc2C(=O)N([C@H](C)CO)C[C@@H]1C
0[16.7 µM],O=C(NC1Cc2ccccc2C1)[C@@H]1[C@@H](CO)[C@@H]2Cn3c(cccc3=O)[C@@H]2N1C(=O)c1cnccn1
5[16.7 µM],C[C@@H]1CN([C@H](C)CO)C(=O)Cc2cc(NC(=O)CCCCCC(=O)Nc3ccccc3N)ccc2O[C@@H]1CN(C)C(=O)Nc1ccc(F)cc1
-2[16.7 µM],C[C@@H]1CN([C@@H](C)CO)C(=O)c2cc(NC(=O)Cn3cnnn3)ccc2O[C@@H]1CN(C)S(=O)(=O)c1ccccc1
7[16.7 µM],C[C@@H]1CN([C@H](C)CO)C(=O)c2cc(NC(=O)c3ccccc3)ccc2O[C@@H](C)CCCCO[C@H]1CN(C)C(=O)c1ccncc1
32,CCCCCCCCN1C(=O)[C@@H](CC(=O)NCCc2ccccc2OC)C[C@@]2(C(=O)OC)C1=C[C@H](C(C)(C)C)O[C@@H]2C
-13[16.7 µM],CO[C@@H]1CC[C@@H]2CCOc3ccc(C#N)cc3C(=O)N(C)C[C@@H](c3ccccc3)CC(=O)N(C)C[C@H]1O2
-11[16.7 µM],C[C@@H]1CN([C@@H](C)CO)C(=O)c2cc(C#C[C@@H](C)O)cnc2O[C@@H]1CN(C)C(=O)Nc1ccc(C(F)(F)F)cc1
8[16.7 µM],COC(=O)C[C@@H]1CC[C@H]2[C@@H](COc3ccc(NC(=O)Cc4cccs4)cc3C(=O)N2C)O1
-6[16.7 µM],COCC(=O)Nc1ccc2c(c1)[C@@H]1C[C@@H](CC(=O)NCc3cccnc3)O[C@H](CO)[C@@H]1O2
-26,Nc1[nH]c(C(=O)c2ccc(Br)cc2)c(-c2ccc(Br)cc2)c1C(=O)NCc1ccc(-c2ccccc2)cc1
0,COCc1cc(N2CCN(C(=O)OC(C)(C)C)C[C@H]2C)ccc1N1CC[C@H](O)C1
12[16.7 µM],CN(C)C(=O)[C@@H]1[C@@H](CO)[C@@H]2Cn3c(ccc(-c4cncnc4)c3=O)[C@H]1N2C(=O)NC1CCCC1
-5[16.7 µM],C[C@H]1CN([C@@H](C)CO)C(=O)CCCn2cc(nn2)CO[C@H]1CN(C)S(=O)(=O)c1ccc(Cl)cc1
-6[16.7 µM],CO[C@@H]1CN(C)C(=O)c2ccc(NC(=O)Cc3ccccc3)cc2OC[C@H](C)N(C(=O)c2ccccc2F)C[C@H]1C
8[16.7 µM],CO[C@H]1CN(C)C(=O)c2cc(NC(=O)Nc3ccc(Cl)cc3)ccc2OC[C@@H](C)N(C(=O)Nc2c(C)noc2C)C[C@@H]1C
-53,Cc1ccc2nc(-c3ccc(C#N)cc3)c(Cc3cccc(F)c3)n2c1
17,CCCN1CCCCC(NC(=O)c2cccs2)C1=O (stereo not given)
8,CC(C)(C)S(=O)(=O)N1C[C@H]2CC(=O)C(CCO)=C2[C@@H]1CCO
10[16.7 µM],CO[C@@H]1CC[C@@H]2CCN(C)C(=O)CCCN(C)C(=O)c3cc(C#N)ccc3OC[C@H]1O2
16[16.7 µM],COc1ccc(CNC(=O)N(C)C[C@@H]2OCc3ccccc3-c3ccccc3C(=O)N([C@@H](C)CO)C[C@H]2C)cc1
17,C[C@@H]1ON(C)[C@H]2C[C@H]3c4cc(-c5ccc6c(c5)OCO6)ccc4CCN3C[C@@H]12
17,O=C(Nc1ccccc1)N1c2ccccc2SC1c1ccco1 (stereo not given)
2[16.7 µM],C[C@@H]1CCCCO[C@@H](CN(C)C(=O)c2ccccc2)[C@H](C)CN([C@H](C)CO)C(=O)c2cc(NC(=O)CCCN(C)C)ccc2O1
-73[16.7 µM],C[C@@H]1CN([C@H](C)CO)C(=O)c2ccccc2-c2ccccc2CO[C@H]1CN(C)S(=O)(=O)c1cn(C)cn1
3[16.7 µM],O=C(C[C@@H]1C=C[C@@H](NC(=O)Cc2cccnc2)[C@H](CO)O1)Nc1ccccc1
4[16.7 µM],Cn1cnc(CCNC(=O)[C@@H]2[C@@H](CO)[C@@H]3Cn4c(cccc4=O)[C@@H]3N2C(=O)Nc2ccccc2)c1
2[16.7 µM],CCC(=O)N[C@@H]1CC[C@H](CC(=O)NCc2ccccc2F)O[C@@H]1CO
-9[16.7 µM],CN(C)c1ccc2c(c1)[C@H]1C[C@@H](CC(=O)NCc3ccc4c(c3)OCO4)O[C@@H](CO)[C@H]1O2
-2,O=C(NCc1ccccc1)[C@H]1CCCN1C(=O)[C@H]1CCCN1C(=O)C1CCCCC1
-3[16.7 µM],C[C@H]1CN([C@@H](C)CO)C(=O)c2cc(NC(=O)CCCN(C)C)ccc2O[C@@H]1CN(C)C(=O)Nc1ccc2c(c1)OCO2
-8,CN1CCCCC(NC(=O)C2CCCCC2)C1=O (stereo not given)
-9[16.7 µM],CNC[C@H]1Oc2ncc(Br)cc2C(=O)N([C@@H](C)CO)C[C@@H]1C

Next section
Env fusion inh,canonical_smiles
1[16.7 µM],CCCNC(=O)N1CC2(CCN(S(=O)(=O)c3cccc(OC)c3)CC2)c2c(n(C)c3cc(OC)ccc23)[C@H]1CO
19,CC(C)CNc1cccc2c1S(=O)(=O)N(Cc1cccc(F)c1)[C@@H](C)[C@H](c1ccccc1)O2
-2[16.7 µM],CC(C)C[C@@H]1NC(=O)[C@H]2C[C@@H](C(=O)NCCCCCN)[C@@H](c3cccc(OCCO)c3)N2C1=O
-21[16.7 µM],CC(C)NC(=O)Nc1ccc2c(c1)C(=O)N([C@@H](C)CO)C[C@@H](C)[C@@H](CN(C)C(=O)Nc1ccccc1)OCCCC[C@H](C)O2
5[16.7 µM],C/C=C/c1ccc([C@@H]2[C@@H](CO)N(C(=O)C3CC3)C23CN(S(=O)(=O)CC)C3)cc1
-306[16.7 µM],O=C(C[C@@H]1C[C@H]2c3cc(NS(=O)(=O)c4ccc(F)cc4)ccc3O[C@H]2[C@@H](CO)O1)NCc1ccc(Oc2ccccc2)cc1

Screening results (PubChem)

This is a subset; rates above refer to the full screens.
